LANA-H2B inh = blockers of LANA interaction with H2A/H2B – biochemical, FP readout, HTS, primary screen | Protein LANA1 (Human herpesvirus 8 type P (isolate GK18)), Q9QR71 | inhibition, % (test concentration not listed) | cell-free LANA-H2A/H2B peptide, fluorescence polarization | 0.6% of 320,000 active | AID 2629, 2010; in the data active = inhibition mostly above about 10%, no sharp cut-off; inactive = mostly below about 6.7%;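 note: stock transfer was 7.5 nL into about 10 µL; 0% = median of vehicle wells and 100% = median of positive control wells; one replicate is shown; the record names a cut of 25% in any replicate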
Target sequence (Q9QR71 whole entry, looked up): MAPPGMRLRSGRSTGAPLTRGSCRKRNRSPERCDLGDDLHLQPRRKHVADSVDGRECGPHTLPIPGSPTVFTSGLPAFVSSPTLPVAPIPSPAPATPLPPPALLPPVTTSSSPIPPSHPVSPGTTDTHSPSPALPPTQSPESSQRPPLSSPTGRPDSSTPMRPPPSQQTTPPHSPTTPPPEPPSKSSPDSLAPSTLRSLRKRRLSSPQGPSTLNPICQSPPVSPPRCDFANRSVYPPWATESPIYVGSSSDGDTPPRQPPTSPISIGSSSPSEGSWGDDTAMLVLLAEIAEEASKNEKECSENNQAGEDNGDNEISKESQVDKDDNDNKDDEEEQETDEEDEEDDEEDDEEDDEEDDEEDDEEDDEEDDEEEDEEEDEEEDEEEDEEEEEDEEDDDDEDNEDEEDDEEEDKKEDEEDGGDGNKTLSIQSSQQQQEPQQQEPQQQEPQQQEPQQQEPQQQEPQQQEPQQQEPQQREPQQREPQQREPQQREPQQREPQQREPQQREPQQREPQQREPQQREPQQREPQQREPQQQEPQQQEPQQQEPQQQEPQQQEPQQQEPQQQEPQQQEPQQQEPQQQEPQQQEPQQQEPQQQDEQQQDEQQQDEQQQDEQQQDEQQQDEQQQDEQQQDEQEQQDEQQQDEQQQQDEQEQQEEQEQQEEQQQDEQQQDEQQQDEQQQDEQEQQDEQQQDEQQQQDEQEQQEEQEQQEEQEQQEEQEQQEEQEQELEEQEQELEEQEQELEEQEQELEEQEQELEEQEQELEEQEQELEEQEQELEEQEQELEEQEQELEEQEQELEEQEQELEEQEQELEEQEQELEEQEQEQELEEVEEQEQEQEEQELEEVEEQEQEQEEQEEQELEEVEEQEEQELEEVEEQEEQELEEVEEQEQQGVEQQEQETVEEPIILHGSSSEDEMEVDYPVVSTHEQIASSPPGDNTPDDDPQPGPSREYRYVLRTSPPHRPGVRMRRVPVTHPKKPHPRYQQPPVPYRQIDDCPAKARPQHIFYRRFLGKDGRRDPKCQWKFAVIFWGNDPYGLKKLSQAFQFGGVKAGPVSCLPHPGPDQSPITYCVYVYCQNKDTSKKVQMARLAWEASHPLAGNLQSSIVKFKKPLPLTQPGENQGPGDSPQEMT
Bfl-1 A1 inh = caspase 3/7 activation in MEF A1-2A-BIM cells, primary screen, A1 inhibitor project, cell-based, luminescence, HTS | Caspase-Glo 3/7 luminescence, 3 h; percent of clofoctol response, vehicle zero | caspase activation, % (test concentration not listed) | 0.066% of 330,000 active;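 active = over half of replicate activation scores above 10%, or exactly half above 10 with the replicate mean above 10; inconclusive = replicate mean below 10 yet half the replicates above 10; inactive = over half of replicates below 10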;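 note: wells of about 30 µL received 50 nL stock; many hits fall short of the cut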
rRNA inh HTS = reduced GFP signal of wild-type E. coli, primary screen, bacterial rRNA inhibitor project, GFP/RFP fluorescence, OD600, single point; E. coli WT GFP vs humanized-ribosome RFP mutants, 24 h; active compounds read low; DMSO median 0, no signal -100; AID 720706, 2013; GFP signal change (wild-type ribosome), % (concentration not given with the values); 1.6% of 350,000 active;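 active = significant combined selectivity score with lowered wild-type GFP, culture density cut under 30%, mutant RFP and density less affected; inactive = any of these conditions unmet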; note: one replicate is shown; some compounds called inactive have numbers as strong as hits
B2AR ag = beta2AR agonists driving receptor internalization, primary screen, cell-based, FAP fluorogen, flow cytometry. response, % (concentration not given with the values). 0.43% of 340,000 active. Am2.2-beta2AR cells; reference of the scale not given here;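 active = response above a set limit, near 3 SD of response in nonfluorescent compounds, cut at about 42% in these data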;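 note: stock transfer was 100 nL into about 11 µL; a reference agonist was the positive control; negative values mostly stem from fluorescent compounds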
Calb FLC = C. albicans growth inhibition with fluconazole, primary screen, CaCi-2 strain, Alamar Blue fluorescence; C. albicans CaCi-2 (fluconazole-resistant clinical isolate) + fluconazole, 48 h; growth inhibition, % (test concentration not listed); 0.57% of 300,000 active;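 active = most replicates above 75%; inconclusive = exactly half above 75%; inactive = most below 75%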;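 note: all wells also contain fluconazole at 8 µg/ml as a sub-toxic cotreatment; 0% = median of DMSO wells and 100% = median of geldanamycin control wells; wells of about 8 µL received 7.5 nL stock; the first replicate is given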
T cruzi repl = inhibitors of intracellular T. cruzi growth, primary screen, luminescence, NIH3T3 host cells. T. cruzi beta-gal in NIH3T3, 90 h. inhibition, % (concentration not given with the values). 1.4% of 300,000 active. AID 1885, 2009;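 active = mean inhibition across valid replicates above about 55%, limit read from the data; inconclusive = mean below that limit but half or more replicates reach it; inactive = mean below it, under half of replicates reach it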;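 note: signal also drops with host cell toxicity which is not excluded here; 0% = plate median of DMSO wells and 100% = zero luminescence signal; higher percent means less beta-gal luminescence so fewer parasites; stock transfer was 50 nL into about 50 µL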
Beta cell apopt = inhibitors of cytokine-induced beta cell apoptosis, primary screen, luminescence. protection from apoptosis, % (test concentration not listed). INS-1E cytokine-induced death, ATP luminescence, 48 h; percent of positive-control rescue, neutral wells zero. 0.8% of 300,000 active. AID 435005, 2010;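 active = all replicates at 75% or more, or half of them and the mean; inconclusive = half reach 75% but not the mean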;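 note: 0% = cytokine-treated negative control wells and 100% = positive control rescue; higher means more ATP so stronger rescue from cytokine killing; wells of about 40 µL received 100 nL stock; the first replicate is given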
ALR H2O2 inh = inhibitors of human ALR sulfhydryl oxidase, primary screen, biochemical, H2O2 detection, HRP-luminol luminescence, single point | FAD-linked sulfhydryl oxidase ALR (Homo sapiens), P55789 | 3.8% of 290,000 active | inhibition, % (no concentration beside the values) | purified ALR, DTT oxidation;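 active = mean and each replicate at 75% or more; inconclusive = only one of the two met; inactive = neither met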;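 note: stock transfer was 7.5 nL into about 7.5 µL; 0% = neutral wells and 100% = wells with inactivated enzyme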
rRNA inh HTS OD600 = recorded beside rRNA inh HTS, whose call it bears; OD600 change, %; measured here: OD600 growth;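 optical density of the mix in the first replicate; 0 = DMSO median and -100 = no signal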
rRNA inh HTS RFP = second read-out of rRNA inh HTS, no call of its own (marks repeat the call); RFP signal change, %; measured here: RFP humanized mutant strains;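 first replicate; 0 = DMSO median and -100 = no signal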
Starred values were filed as active, the others as inactive; ? = inconclusive; . = not tested or not shown. An excerpt; the hit share may differ from the screen's.

item | SMILES | rRNA inh HTS | B2AR ag | ALR H2O2 inh | LANA-H2B inh | Bfl-1 A1 inh | rRNA inh HTS OD600 | Calb FLC | Beta cell apopt | T cruzi repl | rRNA inh HTS RFP
1 | Cc1cc(/C=C2\C(=O)NC(=S)N(C)C2=O)c(C)n1C1CCCCC1 | . | 0 | 1 | -5.7 | -0.4 | . | 4 | -3 | 9 | .
2 | CN=C(SCc1ccccc1)c1c(O)n(C)c(=O)n(C)c1=O | . | 2 | 98* | 1.1 | -0.3 | . | -2 | 1 | -25 | .
3 | Cc1ccc(C(O)P(=O)(Oc2ccccc2)Oc2ccccc2)cc1 (configuration not stated) | 7 | -6 | ? | -6.1 | 0.3 | 13 | 8 | 4 | -28 | 8.4
4 | CCOC(=O)c1c(/N=C/c2c(O)n(-c3cccc(C)c3)c(=O)[nH]c2=O)sc2c1CCCC2 | . | -9 | 2 | -3.3 | 1.5 | . | -12 | -10 | -1 | .
5 | CC1CCCC(NC(=O)COC(=O)c2cn(C)c3ccccc23)C1C (configuration not stated) | 2 | -11 | . | -2.4 | 1.6 | 5 | . | 7 | . | 5.1
6 | Nc1nnc(CCN2CCCCC2)s1 | . | -1 | 3 | 0.8 | 0.9 | . | 0 | -3 | -5 | .
7 | COc1ccc(C(=O)C2CCCN(Cc3ccc(C)s3)C2)c(OC)c1 (configuration not stated) | -15 | 7 | 0 | -5.9 | 0.4 | -20 | 28 | 6 | 16 | -2.2
8 | CCCN1CCO[C@@H]2c3cc(O)ccc3OC[C@H]21 | . | 4 | 10 | -5.6 | 2.5 | . | . | -4 | . | .
9 | Cc1ccc(N)c(N)c1 | 0 | -8 | 3 | -0.1 | 0.0 | 6 | . | -3 | . | 1.8
10 | O=P(O)(O)COc1ccccc1O | 6 | 8 | 51 | 0.0 | 1.2 | -2 | -2 | . | -1 | 2.0
11 | Cc1cc(/C=C2\C(=O)NC(=O)N(c3ccc(Br)cc3)C2=O)c(C)n1-c1cc(C(=O)O)cc(C(=O)O)c1 | 13 | -5 | 57 | 0.1 | 0.0 | 13 | -1 | . | -9 | 4.6
12 | Cc1c(C=O)c2ccccc2n1Cc1ccc([N+](=O)[O-])cc1 | -4 | 15 | -6 | 2.5 | -0.4 | -10 | 0 | 2 | 13 | -1.6
13 | CCC(=NCCCn1ccnc1)c1c(O)n(-c2ccccc2)c(=O)[nH]c1=O | 16 | -1 | 6 | -5.0 | 0.0 | -4 | 2 | 0 | -2 | 2.5
14 | COc1ccc(CN2CCN(c3ccccc3)CC2)c(C)c1C | . | 6 | . | -0.9 | 0.6 | . | -1 | -3 | -2 | .
15 | O=C(NC(=C(Cl)Cl)P(=O)(c1ccccc1)c1ccccc1)c1ccccc1 | -8 | 7 | 3 | 3.9 | 0.8 | 4 | 28 | -9 | -15 | -0.8
16 | CC(C)c1c(CN(C)C(C)Cc2ccccc2)n(C)n(-c2ccccc2)c1=O (configuration not stated) | . | -4 | -15 | 2.6 | 0.6 | . | . | 1 | . | .
17 | CCCCn1c(O)c(C(C)=NCc2ccco2)c(=O)[nH]c1=O | 15 | 6 | -16 | -4.0 | 1.1 | 10 | -5 | -5 | -12 | 10
18 | CCOc1ccccc1CN1C2CCC1CC(c1ccc(C)cc1)C2 (configuration not stated) | -25 | 19 | -22 | 4.8 | 0.6 | -24 | 7 | 19 | 45 | -2.3
19 | CC1CN=C(NCCc2ccccc2)S1 (configuration not stated) | 10 | 0 | . | 2.1 | 0.6 | 1 | -3 | -2 | 20 | -4.6
20 | Cc1ccc(-n2c(CNCc3ccc(F)cc3)nc3ccccc3c2=O)cc1 | 4 | 3 | -3 | -3.2 | 0.8 | 16 | -1 | . | 20 | 2.2

Part of the list above in a different format:
(14) COc1ccc(CN2CCN(c3ccccc3)CC2)c(C)c1C
(15) O=C(NC(=C(Cl)Cl)P(=O)(c1ccccc1)c1ccccc1)c1ccccc1
entry no.	14	15
rRNA inh HTS	.	-8
B2AR ag	6	7
ALR H2O2 inh	.	3
LANA-H2B inh	-0.9	3.9
Bfl-1 A1 inh	0.6	0.8
rRNA inh HTS OD600	.	4
Calb FLC	-1	28
Beta cell apopt	-3	-9
T cruzi repl	-2	-15
rRNA inh HTS RFP	.	-0.8

Back to the main list; the 2 compounds before the break are reprinted first.
item | SMILES | rRNA inh HTS | B2AR ag | ALR H2O2 inh | LANA-H2B inh | Bfl-1 A1 inh | rRNA inh HTS OD600 | Calb FLC | Beta cell apopt | T cruzi repl | rRNA inh HTS RFP
19 | CC1CN=C(NCCc2ccccc2)S1 (configuration not stated) | 10 | 0 | . | 2.1 | 0.6 | 1 | -3 | -2 | 20 | -4.6
20 | Cc1ccc(-n2c(CNCc3ccc(F)cc3)nc3ccccc3c2=O)cc1 | 4 | 3 | -3 | -3.2 | 0.8 | 16 | -1 | . | 20 | 2.2
21 | NP(=O)(OCC(F)(F)F)Oc1cccc2ccccc12 (configuration not stated) | 1 | -1 | -20 | 3.3 | 1.4 | -7 | 33 | -8 | 1 | 6.3
22 | Cc1nc2ccccc2c(=O)n1/N=C/c1cc(Br)cc(Br)c1O | -22* | 9 | 1 | -1.5 | -0.2 | -9.6* | 7 | . | -11 | -0.9*
23 | C=CCn1c(O)c(C=Nc2ccc(OC)cc2C)c(=O)[nH]c1=O | . | -2 | -7 | -4.5 | 0.2 | . | -12 | -7 | 6 | .
24 | CN(C)S(=O)(=O)c1cc(C(=O)N2CCC(C(=O)O)(c3ccccc3)CC2)ccc1Cl | -42 | -7 | 5 | 0.3 | -0.4 | -70 | 1 | . | -17 | 2.8
25 | COC(=O)C1=C(c2cc3ccccc3o2)C[C@@H]2CC[C@H]1N2C(=O)NCc1ccc(F)cc1 | -11 | -12 | -13 | -1.6 | 0.3 | -23 | 13 | -10 | 9 | 4.4
26 | NC(=O)c1ccc(OCCC(O)N2CC=C(c3ccc(F)cc3)CC2)cc1 (configuration not stated) | . | 1 | -4 | -5.5 | 2.4 | . | . | -4 | . | .
27 | COC(=O)C1=C(c2cccc(NC(C)=O)c2)C[C@@H]2CC[C@H]1N2C | 3 | -5 | 0 | 3.1 | -0.1 | 12 | . | -2 | . | -0.9
28 | Cc1c(C(=O)N2CCC3(CC2)OCCO3)oc2ccc(S(=O)(=O)N3CCCCC3)cc12 | . | -6 | -3 | -4.5 | -0.2 | . | 5 | -12 | -2 | .
29 | COCc1cc(C2SCC(=O)Nc3c2c(=O)[nH]n3C(C)C)ccc1OC (configuration not stated) | . | -9 | -2 | -3.0 | 0.2 | . | -7 | 1 | -3 | .
30 | CCOc1ccc(N2C(=O)CC(=O)NC2=O)cc1 | 18 | -1 | -9 | 4.2 | 0.5 | 14 | 8 | -4 | -12 | 3.4
31 | C=CC12CN(C)[C@@H]3C4CO[C@H](C[C@H]41)[C@]1(C(=O)Nc4ccccc41)[C@@H]32 (some centres not stated) | . | 7 | -8 | -0.8 | -0.4 | . | 0 | 0 | 0 | .
32 | Cc1cc(=O)[nH]c(SCc2nc3ccccc3c(=O)n2-c2ccccc2C)n1 | 5 | -5 | -8 | -3.3 | -0.3 | 2 | 0 | -3 | 9 | 0.2
33 | O=C(COc1ccc(Cl)cc1)N1CCN(C/C=C/c2ccccc2)CC1 | . | 8 | 2 | -2.2 | -0.7 | . | -2 | 6 | 8 | .
34 | COc1cccc(-n2c(C)nc3ccccc3c2=O)c1 | . | 7 | -8 | 5.4 | 0.3 | . | -2 | 5 | -13 | .
35 | C[C@H]1CC[C@@]2(C)[C@@H](CC[C@@H]3[C@@H]2CC[C@]2(C)[C@@H](O)CC[C@@H]32)C1 | 12 | 2 | 9 | -7.3 | 0.0 | 3 | 5 | -6 | 9 | 2.1
36 | O=C(N/N=C/c1c(O)n(C2CCCCC2)c(=S)[nH]c1=O)c1ccccc1 | 3 | 10 | 55 | -3.8 | 0.6 | -3 | . | 20 | -4 | 28
37 | O=c1c2ccccc2nc(-c2ccccc2)n1-c1cccc(O)c1 | -11 | -21 | -29 | 2.1 | -0.9 | -12 | -6 | . | -10 | 1.2
38 | Nc1ccccc1C(=O)c1ccccc1 | 10 | 11 | 18 | 2.6 | 1.1 | 9 | -1 | . | -27 | 1.9
39 | CC(C)(C)c1cc([N+](=O)[O-])cc(C(C)(C)C)c1O | -13 | . | . | 1.1 | 0.4 | -19 | 2 | 100* | -94 | -3.2
40 | N/C(=N\[N+](=O)[O-])N1CCN(C(=O)Oc2ccccc2)CC1 | 7 | -1 | -8 | 1.2 | -0.9 | 9 | 0 | 3 | -3 | 0.9

item | SMILES | rRNA inh HTS | B2AR ag | ALR H2O2 inh | LANA-H2B inh | Bfl-1 A1 inh | rRNA inh HTS OD600 | Calb FLC | Beta cell apopt | T cruzi repl | rRNA inh HTS RFP
41 | O=C(O)CCn1cc(C=C2C(=O)NC(=O)NC2=O)c(-c2cc3ccccc3oc2=O)n1 | 18 | 4 | 97* | -6.1 | 0.5 | 9 | 4 | -9 | -13 | -0.7
42 | C=CCN1C(=O)NC(=O)/C(=C/c2cccn2C)C1=O | . | 11 | 55 | 4.3 | -0.9 | . | -6 | 7 | 2 | .
43 | O=C(C(Cc1ccccc1)NS(=O)(=O)c1cccc2nsnc12)N1CCC2(CC1)OCCO2 (configuration not stated) | . | 11 | -40 | 1.1 | -0.3 | . | 14 | -10 | 7 | .
44 | O=C(Cc1ccccc1)N1CCN(Cc2cccc(Br)c2)CC1 | -12 | 4 | -2 | 2.7 | -0.2 | -14 | -11 | 2 | 5 | -2.5
45 | CCCc1c(C)nc(SCC(=O)C(C)(C)C)nc1OC(=O)N(C)C | 1 | -13 | -6 | -2.3 | 0.4 | 4 | -1 | . | 11 | -0.7
46 | O=c1[nH]c(O)c(N=Nc2ccc(SC(F)F)cc2)c(=O)[nH]1 | 9 | 4 | -6 | 4.0 | -3.7 | 13 | 4 | 1 | -7 | -2.5
47 | O=C1Nc2ccc(Br)cc2C(c2ccc(Cl)cc2)=NC1O (configuration not stated) | -6 | -20 | -1 | -2.0 | 0.3 | -28 | -8 | 2 | -3 | -3.9
48 | O=C(Cn1c(=O)c(C(F)(F)F)nc2ccccc21)N1CCC2(CC1)OCCO2 | 13 | 2 | -25 | 1.8 | -0.5 | 9 | -1 | -3 | -4 | -6.9
49 | CN1CCc2c(c(N3CCCCC3)nc3n[nH]c(N)c23)C1 | . | 0 | 33 | -1.2 | 0.4 | . | -2 | 4 | 6 | .
50 | C#CCOc1cc(C2C3=C(COC3=O)Nc3cc4c(cc32)OCO4)ccc1OC (configuration not stated) | 14 | 10 | 35 | -1.4 | 0.4 | 4 | . | 3 | -26 | -1.3
51 | CCOc1ccc(C2CC(c3c(O)n(C)c(=O)n(C)c3=O)=NN2)cc1 (configuration not stated) | -10 | -1 | 2 | 5.4 | -6.9 | 6 | 1 | . | -6 | 9.2

From PubChem
